Source: PubChem
TRPML1 blocker – inhibitors of human TRPML1 channel; Q9GZU1; TRPML1-inducible cells, Ca2+ dye fluorescence, FDSS; hits give low values; inhibition of EC80 agonist-evoked calcium signal; activity change, negative = inhibition, % (test concentration not listed); 390,000 compounds, 0.02% hits; AID 624415; in the data active means activity change below about -50%; inconclusive means about -30% to -50%; inactive means above about -30%;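 note: stimulus is agonist 54-4 at its EC80 concentration; % is set by controls: 0 for no effect and ±100 for the full control effect; compound concentration not given in the record; the text of the record puts the active cut at -80%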
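Calcium fluorescence in TRPML1-DL cells induced overnight with Tet: a 110 s read after compound pin addition, then a 110 s antagonist read after challenge with 54-4 at 4 uM final (EC80).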
TRPV1 potentiator – potentiators of human vanilloid receptor 1 (TRPV1) | TRPV1-expressing cells, Fluo-8 calcium influx, capsaicin EC20 potentiation; host cell line not named in the record; control for the full effect not named in the record | potentiation, % at 8.33 µM | 320,000 compounds, 0.02% hits | AID 540277; active means potentiation above 80%; inconclusive means 30% to 80%; inactive means below 30%; note: 0% is about no effect
Target sequence (Q8NER1 whole entry, looked up): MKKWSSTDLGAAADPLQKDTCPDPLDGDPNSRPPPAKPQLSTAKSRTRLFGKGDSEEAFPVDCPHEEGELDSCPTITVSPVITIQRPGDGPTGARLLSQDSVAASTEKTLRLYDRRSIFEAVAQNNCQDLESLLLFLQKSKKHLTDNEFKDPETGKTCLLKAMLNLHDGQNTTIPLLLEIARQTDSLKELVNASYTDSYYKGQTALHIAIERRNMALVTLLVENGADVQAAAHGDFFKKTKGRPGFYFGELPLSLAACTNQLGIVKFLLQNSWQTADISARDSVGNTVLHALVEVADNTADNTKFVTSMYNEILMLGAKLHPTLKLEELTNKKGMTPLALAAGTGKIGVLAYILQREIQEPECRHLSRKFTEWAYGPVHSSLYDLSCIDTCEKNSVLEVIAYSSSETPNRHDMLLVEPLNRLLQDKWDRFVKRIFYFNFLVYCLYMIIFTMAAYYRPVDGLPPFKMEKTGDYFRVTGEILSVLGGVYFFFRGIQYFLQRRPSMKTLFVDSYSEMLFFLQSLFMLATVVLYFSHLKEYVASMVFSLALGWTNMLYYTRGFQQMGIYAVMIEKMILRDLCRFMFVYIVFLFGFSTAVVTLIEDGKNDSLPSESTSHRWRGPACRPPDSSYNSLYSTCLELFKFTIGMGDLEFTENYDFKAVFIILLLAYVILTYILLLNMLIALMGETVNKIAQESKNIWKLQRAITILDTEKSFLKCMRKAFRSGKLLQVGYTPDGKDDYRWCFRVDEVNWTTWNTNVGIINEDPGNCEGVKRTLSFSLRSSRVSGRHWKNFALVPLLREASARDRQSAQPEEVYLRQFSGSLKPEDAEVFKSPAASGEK
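TRPV1-expressing cells were cultured overnight at 35.5C and loaded with Fluo-8 calcium dye for 40 to 90 min at room temperature. After a 10 s baseline, compound was added and calcium influx was read kinetically for 3 min (ex 480/em 520 nm).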
Six1-Eya2 inh – inhibitors of human Six1/Eya2 interaction | activity change, % (concentration not given with the values) | AlphaScreen GST-Six1/His-Eya2 binding, biochemical; hits give low values; control for the full effect not named in the record | AID 651725 | 360,000 compounds, 0.56% hits; in the data active = activity change below about -65%; inconclusive = about -30% to -65%; inactive = above about -30%; note: % is set by controls: 0 for no effect and ±100 for the full control effect
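GST-Six1 + His-Eya2 (5X stock: 250/500 nM); Tris pH 8.0, 300 mM NaCl, 0.05% BSA, 0.02% Tween 20; GSH donor/Ni acceptor beads; 1 h 37 °C dark; AlphaScreen readout.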
TRPML1 ag – human mucolipin-1 channel agonism | Q9GZU1 | TRPML1-expressing cells, Ca2+ dye fluorescence, FDSS; host cell line not named in the record; reference of the full effect not given here | activation, % (concentration not given with the values) | 410,000 compounds, 0.12% hits | AID 624414; in the data active = activation above about 50%; inconclusive = about 30% to 50%; inactive = below about 30%; note: 0% is about no effect; the text of the record puts the active cut at 80%
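In this qHTS format, compounds were pin-transferred onto Ca8-dye-loaded TRPML1-DL cells induced with Tet overnight, and intracellular Ca2+ fluorescence was recorded kinetically for 110 s after a 10 s baseline. A subsequent 4uM final 54-4 (EC80) addition followed by a second 110 s read served as the antagonist phase.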
D2 potentiator – positive allosteric modulators of human D2 dopamine receptor; DiscoveRx D2 beta-arrestin cells, luminescence, 90 min; 100% = 57 uM dopamine signal; potentiation, % (no concentration beside the values); 360,000 compounds, 0.23% hits; AID 624464; active = potentiation of 50% or more; inconclusive = 30% to 50%; inactive = 30% or less;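 note: compound concentration not given in the record; tested on top of an EC20 dose of dopamine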
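D2 cells co-treated with compound plus 50 nM dopamine (EC20) for 90 min at 37 deg C to detect potentiation. Beta-arrestin recruitment was read as enzyme-fragment luminescence after 1 h at ambient temperature. Full response was set by 57 uM dopamine.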
CtBP-E1A inh – inhibitors of CtBP/E1A interaction; AlphaScreen GST-E1A/His-CtBP binding, 1536-well; hits give low values; control for the full effect not named in the record; activity change, % (test concentration not listed); 340,000 compounds, 0.49% hits; AID 651724; in the data active means activity change below about -65%; inconclusive means about -30% to -65%; inactive means above about -30%; note: % is set by controls: 0 for no effect and ±100 for the full control effect
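Steps: dispense buffer (Tris pH 8.0, NaCl 300 mM, TCEP 1 mM, BSA, Tween 20); add 5X protein mix (GST-E1A, His-CtBP, 125 nM each); pin 23 nL compound; 2 h at 37 °C, dark; add 5X beads (50 ug/mL); 1 h; read.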
* = called active by the depositor; ? = inconclusive; . = no result given; & = joins results of further samples.

SMILES | TRPML1 blocker | TRPV1 potentiator | Six1-Eya2 inh | TRPML1 ag | D2 potentiator | CtBP-E1A inh
CC(C)CCNC(=O)CNC(=O)c1cccs1 | -7 | 10 | 3 | 0.5 | -19 | 3
Cc1nn(C)cc1C(=O)c1ccccc1 | 19 | . | 5 | 1.0 | 5 | .
CCOC(=O)C(C)Oc1ccc(C2NC(=O)NC(C)=C2C(=O)Nc2ccccc2C)cc1 (stereo unspecified) | -1 | 25 | 4 | -0.4 | -13 | 13
COc1cc(CNn2nnnc2N)ccc1OCC(=O)NC(C)(C)C | 7 | 5 | 9 | -0.1 | 3 | -1
CCn1cnc2c1c(=O)n(Cc1cccc(Br)c1)c(=O)n2Cc1ccccc1 | 18 | ? | 2 | -0.6 | -9 | 0
Cc1ccc(OCC(=O)N/N=C\c2cn(Cc3ccccc3)c3ccccc23)cc1C | 5 | 5 | 2 | -0.6 | -8 | 0
c1ccc(CCc2nc(-c3ccc(-n4cccc4)cc3)no2)cc1 | -8 | 7 | 10 | 0.1 | -6 | 3
CCCCCN(C(=O)CCC(=O)OC(C)C(=O)NCc1ccccc1)c1c(N)n(CCCC)c(=O)[nH]c1=O (stereo unspecified) | -3 | 27 | 2 | -0.1 | -3 | 2
Cc1c(NC(=O)C(C)Sc2nc3ccccc3c(=O)n2CCO)c(=O)n(-c2ccccc2)n1C (stereo unspecified) | 6 | 13 | 0 | -0.3 | 0 | 4
Cc1cccc(C)c1NC(=O)CSc1nnnn1C | 6 | -2 | -4 | -0.3 | 19 | -6
COc1ccc(-c2nn(-c3ccccc3)cc2C(=O)N/N=C/c2ccc([N+](=O)[O-])o2)cc1 | -2 | 7 | -3 | 0.1 | 4 | 3
CC(=O)Nc1ccc(-c2csc(NC(=O)C3CSC4(C)CCC(=O)N34)n2)cc1 (stereo unspecified) | 2 | -1 | -12 | 1.0 | ? | 12
COc1ccc(N2CCN(C(c3cccs3)C(C)NS(C)(=O)=O)CC2)cc1 (stereo unspecified) | -8 | -9 | -9 | -0.1 | -5 | -3
Cc1cccc(N2CCN(S(=O)(=O)c3cccc4nonc34)CC2)c1C | -13 | 11 | ? | 0.1 | 5 | 2
CCS(=O)(=O)CCn1c([N+](=O)[O-])cnc1C | 8 | 4 | 4 | -0.8 | 6 | 5
CC(C)(C)S(=O)(=O)c1ccc2nc3c(n2c1)CCCC3 | 5 | -4 | 2 | 3.6 | -6 | -1
O=C(Nc1cc(-c2nc3ncccc3o2)ccc1Cl)c1ccco1 | 2 | -3 | -14 | 0.3 | -22 | -11
COC(=O)c1ccc(CSc2nnnn2Cc2ccccc2)cc1 | 13 | 4 | 16 | 3.4 | 2 | 21
Cc1c(C)c2ccc(OCC(=O)N[C@@H](Cc3ccccc3)C(=O)O)cc2oc1=O | -1 | 7 | 14 | 1.3 | 19 | 22
COC(=O)Cn1ccc2cc(S(=O)(=O)N3CCCCCC3)ccc21 | 11&0 | 10 | -1 | -0.1&3.0 | -4 | 4
CCCCCCn1cc(C(=O)O)c(=O)c2cc(F)c(N3CCN(C(=O)OCC)CC3)cc21 | 20 | 24 | 9 | 1.2 | 0 | 4
CC(C)CC(N=Cc1c(O)c2ccccc2oc1=O)C(=O)O (stereo unspecified) | -4 | 1 | 8 | -0.6 | 7 | 2
O=C1Nc2ccccc2Cc2ccccc21 | -5 | . | -1 | -0.6 | -12 | 5
CCCCSCCCNC(=O)Nc1ccc(CC)cc1 | 17 | -7 | -5 | 0.8 | 4 | -1
COC(=O)C1CN(C(=O)C(C)Oc2ccc(C)c(C)c2)c2ccccc2O1 (stereo unspecified) | -17 | -3 | -2 | -0.3 | -6 | .
CC(C(=O)NC1CCCCC1)N(Cc1ccc(F)cc1)C(=O)c1snc(C(N)=O)c1N (stereo unspecified) | 40 | -3 | 7 | -0.5 | -8 | -6
Clc1cccc(CN2CCc3c([nH]c4ccccc34)C2)c1Cl | 26 | 2 | -11 | -0.3 | -24 | .
FC(F)Oc1ccc(-c2csc(=Nc3cccnc3)n2CC2CCCO2)cc1 (stereo unspecified) | 47 | -21 | -12 | 2.6 | 22 | -9
CC(C)NC(=O)CSc1ccccc1C(=O)NCc1ccc2c(c1)OCO2 | 8 | 10 | 9 | 0.2 | -11 | 9
CCC(=O)N1CCN(c2nc3ccc(Br)cc3s2)CC1 | -4 | -21 | 4 | 0.1 | -12 | .
C[C@H](CO)N1C[C@H](C)[C@H](CN(C)S(=O)(=O)c2cccc(F)c2)OCc2ccccc2-c2c(n(C)c3ccccc23)C1=O | 16 | . | -3 | -0.4 | 8 | -1
O=C(Cn1nnc(-c2ccccc2)n1)Nc1cccc(S(=O)(=O)N2CCOCC2)c1 | -6 | 5 | -4 | -0.6 | -4 | -5
CC(C)CCNC(=O)c1sc2ccc(S(=O)(=O)N3CCCCC3)cc2c1N | 12 | -3 | -8 | -0.7 | 3 | -3
Cc1nc2ccccn2c1C(=O)CSc1ccccc1Cl | -10 | -12 | 1 | 1.9 | 3 | -1
Cc1ccc(S(=O)(=O)CCSc2n[nH]c(=O)n2-c2ccc3c(c2)OCCO3)cc1 | -8 | 16 | -4 | 3.2 | 0 | -2
Cc1ccc(N2C(=O)CS(=O)C(c3ccccc3)C2=O)cc1C (stereo unspecified) | 2 | -2 | -8 | 0.0 | 0 | -29
CC(C)n1c(SCc2ccccc2F)nc2c1c(=O)n(C)c(=O)n2C | 7 | 5 | -3 | 1.5 | -2 | 3
CC(C)c1cc(C(=O)N/N=C/C=C/c2ccccc2)n[nH]1 | -11 | 18 | 3 | 2.4 | -3 | 2
O=C(COC(=O)CSc1ccccc1)NNC(=O)c1ccc([N+](=O)[O-])cc1 | 33 | -24 | -17 | 0.8 | -4 | -12
COC(=O)c1cnn(-c2ccc(F)cc2F)c1/C=N/NC(=S)NC(C)(C)C | -11 | -15 | 0 | 1.0 | -6 | 4
O=C(/C=C/c1cccc([N+](=O)[O-])c1)N1CCN(C(=O)c2ccco2)CC1 | 2 | 3 | 15 | -0.4 | -4 | -6
CC1CCCC(NC(=O)COC(=O)c2cccnc2Cl)C1C (stereo unspecified) | -2 | -2 | 0 | -0.4 | 0 | 12
COc1ccc(NC(=O)Cc2c(F)cccc2Cl)c(OC)c1 | 1 | -7 | -3 | -1.0 | -21 | -18
Cc1sc2ncnc(N(C)C3CCCCC3)c2c1C | -4 | -1 | 4 | 1.4 | -4 | 11
CC(C)=CCOc1c2ccoc2c(OCC=C(C)C)c2oc(=O)ccc12 | -7 | . | 22 | 0.5 | 5 | 9
CCc1ccccc1NC(=O)CN(c1ccc(OC)cc1OC)S(=O)(=O)c1ccccc1[N+](=O)[O-] | 23 | 8 | -16 | 0.9 | -3 | -8
CC(=O)c1c(C)[nH]c(C(=O)C(C)Sc2nnc(NC3CC3)s2)c1C (stereo unspecified) | 8 | 0 | -5 | 0.2 | 4 | -1
Cn1c(Cn2nnc3ccccc32)nnc1SCC(N)=O | 16 | -4 | 1 | 1.4 | -5 | 0
O=C(C1CCN(S(=O)(=O)c2cccc3nsnc23)CC1)N1CC=C(c2ccccc2)CC1 | 14 | . | -4 | 1.3 | 9 | -17
Cc1ccc(-n2c(N)cc(=O)nc2SCC(=O)N2CCN(c3ccccc3)CC2)cc1 | -5 | -7 | -4 | 1.5 | -22 | -3
Continuation.
SMILES | TRPML1 blocker | TRPV1 potentiator | Six1-Eya2 inh | TRPML1 ag | D2 potentiator | CtBP-E1A inh
O=C1c2cccc3cc([N+](=O)[O-])cc(c23)C(=O)N1/N=C/c1ccc(O)cc1O | 19 | 2 | -27 | 0.3 | ? | -23
O=C(COc1ccccc1F)OCC(=O)N1CCc2ccccc21 | 17 | 2 | 0 | 1.5 | 6 | -6
O=C(NCC1(N2CCCCC2)CCCCC1)c1cccc(S(=O)(=O)Nc2ccc(F)cc2)c1 | -13 | 4 | 0 | 0.1 | -2 | -1
Cc1ccc(S(=O)(=O)N(CC(=O)N2CCOCC2)CC(=O)N2CCOCC2)cc1 | -11 | ? | 1 | -0.1 | -6 | 1
CC(=O)O[C@@H]1[C@@H](O)[C@@H](O)[C@H](Oc2c(-c3ccc(O)cc3)oc3c(CC=C(C)C)c(O)cc(O)c3c2=O)O[C@H]1C | . | . | -8 | . | -2 | -2
Fc1ccccc1COc1ccc(/C=N/NC(=S)NCc2ccccc2)cc1 | 4 | ? | -9 | -0.7 | -6 | -2
CCOc1ccc(C(=S)NC2CCCCC2)cc1OC | -7 | 20 | 2 | 0.9 | -11 | -8
COc1ccc(CCNC(=O)C2CCN(S(=O)(=O)c3ccc(C)cc3)CC2)cc1 | 42 | -18 | -4 | 0.1 | -13 | 12
CCOC(=O)C1=C(C)Nc2ncnn2C1c1cc(Br)ccc1F (stereo unspecified) | -15 | -7 | 6 | -0.6 | 6 | -3
CCCCCC(=O)N1C[C@H](n2cc(COC(=O)c3ccccc3)nn2)[C@@H](O)C[C@@H]1c1ccc(Cl)cc1 | -2 | . | -8 | 0.7 | -1 | -7

Gathered by group: those above containing bromine.
SMILES | TRPML1 blocker | TRPV1 potentiator | Six1-Eya2 inh | TRPML1 ag | D2 potentiator | CtBP-E1A inh
CCn1cnc2c1c(=O)n(Cc1cccc(Br)c1)c(=O)n2Cc1ccccc1 | 18 | ? | 2 | -0.6 | -9 | 0
CCC(=O)N1CCN(c2nc3ccc(Br)cc3s2)CC1 | -4 | -21 | 4 | 0.1 | -12 | .
CCOC(=O)C1=C(C)Nc2ncnn2C1c1cc(Br)ccc1F (stereo unspecified) | -15 | -7 | 6 | -0.6 | 6 | -3

Next entries.
SMILES | TRPML1 blocker | TRPV1 potentiator | Six1-Eya2 inh | TRPML1 ag | D2 potentiator | CtBP-E1A inh
Cc1cc(NS(=O)(=O)c2ccc(NC(=O)C(C(C)C)N3C(=O)c4ccccc4C3=O)cc2)nc(C)n1 (stereo unspecified) | 3 | 4 | -20 | -0.3 | -16 | 9
COc1ccc(CCNCC(=O)N2C(C)CCCC2C)cc1OC (stereo unspecified) | -9 | 0 | -7 | -0.3 | -8 | -2
COc1c2occc2c(OC)c2c(=O)cc(C)oc12 | 2 | 7 | -20 | 0.3 | 12 | ?
Cn1c(S(=O)(=O)Cc2ccc(Cl)cc2)nc2ccccc21 | -7 | -17 | 1 | 0.3 | -2 | 6
O=S(=O)(Nc1nc2c(s1)CCCC2)c1ccc(F)cc1 | -1 | -6 | -1 | -0.6 | -6 | -6
COc1ccc(C(=O)Nc2ccc(NC(=O)C3CC3)cn2)cc1 | -3 | -4 | 0 | -0.3 | 3 | 0
COc1cc(C)ccc1OCCCOc1c(Cl)cccc1Cl | -5 | -3 | 40 | 2.7 | -14 | 40
CCOC(=O)Cc1cc(=O)[nH]c(Nc2nc3ccccc3o2)n1 | -4 | -4 | -5 | -0.3 | 10 | -13

Ordered by length of the SMILES (high to low): three of the compounds above.
SMILES | TRPML1 blocker | TRPV1 potentiator | Six1-Eya2 inh | TRPML1 ag | D2 potentiator | CtBP-E1A inh
O=S(=O)(Nc1nc2c(s1)CCCC2)c1ccc(F)cc1 | -1 | -6 | -1 | -0.6 | -6 | -6
COc1ccc(CCNCC(=O)N2C(C)CCCC2C)cc1OC (stereo unspecified) | -9 | 0 | -7 | -0.3 | -8 | -2
COc1c2occc2c(OC)c2c(=O)cc(C)oc12 | 2 | 7 | -20 | 0.3 | 12 | ?
